Compound activity: PubChem, Fisher Drug Discovery Resource Center
NPYLR7 agonist: agonists of mosquito NPYLR7 receptor, primary screen, cell-based, Aedes aegypti, calcium fluorescence, mosquito biting behavior; Aedes aegypti neuropeptide Y-like receptor 7 (NPYLR7); HEK293T NPYLR7/Galpha15, GCaMP6s calcium fluorescence; activation, % at 10 µM; 270,000 compounds, 0.15% hits; in the data active means activation above about 40%;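 further: 0% = vehicle and 100% = reference agonist at the receptor; some compounds past the cut are filed as inactive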
NPYLR7 agonist max-min: further read-out of NPYLR7 agonist, marked with its call; activation, %; measured here: Max-Min RFU normalised activation; some inactives read as strong as hits;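 span of the calcium signal over five minutes; 0% = vehicle and 100% = native peptide agonist; compound fluorescence can raise it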
Starred values were filed as active, the others as inactive; & = joins results of further samples.

SMILES	NPYLR7 agonist	NPYLR7 agonist max-min
CC(C)c1cncnc1N1CCN2CCN(C)CC2C1 (stereo unspecified)	0	-3
CC(Cc1cccs1)NCc1ccc(Cl)cc1 (stereo unspecified)	0	-3
C[C@@H]1CC[C@@]2(NC1)O[C@H]1C[C@H]3C4CC=C5C[C@@H](O)CC[C@]5(C)C4CC[C@]3(C)C1[C@@H]2C (stereo partly specified)	8	-8
CC1CN(C2CCC(C(C)(C)C)CC2)CC(C)O1 (stereo unspecified)	-14	-18
N#Cc1ccc(NC2CCN(C(=O)c3cnccn3)CC2)cc1Cl	-19	-20
COc1ccc2[nH]cc(CCN)c2c1	-2&-3&3	-1&-8&-27
CCn1nnc2c(N3CCNCC3)ncnc21	-3	-1
CNC(=O)c1cccc(NCc2c(C)cc(C)nc2OC)n1	4	3
CN1C(=O)NC(=O)/C(=C/c2ccc(-c3cccc(C(=O)O)c3)o2)C1=O	1	-1
COc1ccc(C(=O)c2c(C)n(CCN3CCOCC3)c3cc(I)ccc23)cc1	-6	-11
COc1ccc(C2=CCN(CC(C#N)CCC#N)CC2)cc1 (stereo unspecified)	-1	-3
C=CCn1cc(C(=O)Nc2c[nH]ccc2=O)c2ccccc21	9	8
N#Cc1ccccc1NC(=O)c1cccn(Cc2ccccc2Cl)c1=O	15	8
CN1CCN2CCN(C(=O)CCn3ccc(=O)[nH]c3=O)CC2C1 (stereo unspecified)	18	12
Cc1ccnc(CC(C)N(C)Cc2cccc3cnccc23)c1 (stereo unspecified)	6	3
Cc1nc2ccccc2c(=O)n1-c1ccccc1Cl	-22	-33
CCOC(=O)CC(=O)Nc1ccc2[nH]cc(CCN(C)C3CCCCC3)c2c1	16	-1
CC[C@]1(O)CC[C@H]2[C@@H]3CCC4=CCCC[C@@H]4[C@H]3CC[C@@]21C	-3	-7
Cc1cccc(C2SCC(=O)N(CC(=O)N3CCCC3)c3c2c(C(C)(C)C)nn3C)c1 (stereo unspecified)	-20	-14
CC1(C)N([O-])[N+](=O)C1(C)Br (stereo unspecified)	2	-5
OC1CCCCC1N1CCC(c2ccccc2)CC1 (stereo unspecified)	-6&4	-15&-35
COCC1(C(=O)N2C[C@H](c3ccccc3)[C@@H]3[C@H]2C2CCN3CC2)CCC1	8	7
Cc1c(NP(=O)(C(C)(C)C)C(C)(C)C)c(=O)n(-c2ccccc2)n1C	8	7
O=C(NCCc1ccccn1)C(C1CCCC1)N1CCN(C(=O)COc2ccc(Cl)cc2)CC1 (stereo unspecified)	0	26
Cc1ccc(Cn2ccsc2=N)cc1	-5	-6
O=C1NC(=S)NC(=O)C1=Cc1cc(-c2ccccc2)n(-c2ccc([N+](=O)[O-])cc2)c1-c1ccccc1	-8	-14
N#Cc1cccc(-c2ccc(=O)n3c2[C@@H]2C[C@@H](CN(S(=O)(=O)c4ccccc4)C2)C3)c1	-11	-15
CS(=O)(=O)c1ccc(-c2ccccc2C(=O)N2CCC(C#N)(c3ccccc3)CC2)cc1	-7	-8
CCCNC(=O)C(C1CCCC1)N1CCN(C(=O)Cc2ccccc2)CC1 (stereo unspecified)	-9	0
C/C=C/c1cc(OC)c(OC)cc1OC	3	2
c1ccc(NC2=NCCCS2)cc1	4	3
Nc1nc(N2CCN3CCNC(=O)C3C2)c2cn[nH]c2n1 (stereo unspecified)	5	6
N#Cc1ccccc1CN1CCN(c2ccccc2O)CC1	-6	-5
Cc1ccsc1C(=O)C1CCCN(Cc2nc3c(s2)CCCC3)C1 (stereo unspecified)	10	1
COc1ccc(S(=O)(=O)N2CCN(CCOC(c3ccc(F)cc3)c3ccc(F)cc3)CC2)cc1OC	2	-2
COc1cccc(-c2nc(CCNC(C)Cc3cccc(C(F)(F)F)c3)n3ccc(Cl)cc23)c1 (stereo unspecified)	10	9
COc1nc(C)cc(C)c1CNc1ncccc1C(F)(F)F	-23	-20
CO[C@H]1CN[C@H]2Cc3c(oc4ccccc34)[C@@H]1C2	1	10
CC(C)c1ccc(NC(=O)C(C2CCCC2)N2CCN(C(=O)Cc3cccs3)CC2)cc1 (stereo unspecified)	-3	1
NC(=O)CN1CCCC1=O	-8&-3&1	-13&-9&-19
O=c1ccc2cc(OC3O[C@H](CO)[C@@H](O)[C@H](O)[C@H]3O)c(O)cc2o1 (stereo partly specified)	0	-8
NC(=O)c1cc([N+](=O)[O-])cc([N+](=O)[O-])c1	-8	-13
COC(=O)C1C(=N)Oc2cc(C)[nH]c(=O)c2C12C(=O)N(Cc1ccc(F)cc1)c1ccccc12 (stereo unspecified)	-1	-4
Cc1nccc2c1[nH]c1ccccc12	-5&2&0	-12&3&-26
c1cc(CN2CCSC3(CCCCC3)C2)no1	-4	-8
C/C=C(/C)C(=O)O[C@H]1C(C)=C2[C@H]([C@@H]1OC(=O)CCCCCCC)[C@@](C)(OC(C)=O)C[C@H](OC(=O)CCC)[C@@]1(O)[C@H]2OC(=O)[C@@]1(C)O	19	15
C=C[C@H]1CN2CC[C@H]1C[C@H]2[C@H](O)c1ccnc2ccccc12	-6&-4	-12&-6
Cc1cccnc1CC(C)NC1CCN(C(=O)c2ccccc2)CC1 (stereo unspecified)	-6	-7
COc1cc(C=C2C(=O)N(C)C(=O)N(C)C2=O)ccc1OCCOc1ccccc1	2	3
CCCNC(=O)c1nn(Cc2ccc(S(=O)(=O)N3CCOCC3)cc2)c2ccccc12	12	18
CCCCCOc1c(OC)ccc2cc(C(=O)NCc3ccc4c(c3)OCO4)c(=O)[nH]c12	1	-8
CCCn1cc(C(=O)NCC2CCCO2)c2ccccc21 (stereo unspecified)	6	6
Cc1ccc(CN2CCCC(C(=O)c3cccc(OC(C)C)c3)C2)o1 (stereo unspecified)	1	-1
COCCNC(=O)C(C1CCCC1)N1CCN(C(=O)COc2ccc(Cl)cc2)CC1 (stereo unspecified)	-7	-5
CC(C)N(CC(=O)Nc1nc(CC(=O)N2CCN(Cc3ccc4c(c3)OCO4)CC2)cs1)C(=O)c1ccco1	-7	4
O[C@H]1C[C@@H]2CN(Cc3cnc(C4CCCCC4)nc3)C[C@@H]2C[C@@H]1O	1	-1
Fc1cccc(C2NCCc3[nH]cnc32)c1F (stereo unspecified)	-1	-3
O=S(=O)(c1cc(Cl)cc(Cl)c1)N1CCN(CCOC(c2ccc(F)cc2)c2ccc(F)cc2)CC1	3	3
COc1cccc(CC(C)NCC(=O)NC(C)C)c1 (stereo unspecified)	1	-1
Cc1nc2ncccc2cc1C(=O)N1CCC2(CCN(C)C2)CC1	12	10

Ordered by SMILES length (descending): 14 of the compounds above.
SMILES	NPYLR7 agonist	NPYLR7 agonist max-min
C[C@@H]1CC[C@@]2(NC1)O[C@H]1C[C@H]3C4CC=C5C[C@@H](O)CC[C@]5(C)C4CC[C@]3(C)C1[C@@H]2C (stereo partly specified)	8	-8
COc1ccc(S(=O)(=O)N2CCN(CCOC(c3ccc(F)cc3)c3ccc(F)cc3)CC2)cc1OC	2	-2
CC[C@]1(O)CC[C@H]2[C@@H]3CCC4=CCCC[C@@H]4[C@H]3CC[C@@]21C	-3	-7
O[C@H]1C[C@@H]2CN(Cc3cnc(C4CCCCC4)nc3)C[C@@H]2C[C@@H]1O	1	-1
CCCNC(=O)c1nn(Cc2ccc(S(=O)(=O)N3CCOCC3)cc2)c2ccccc12	12	18
COCCNC(=O)C(C1CCCC1)N1CCN(C(=O)COc2ccc(Cl)cc2)CC1 (stereo unspecified)	-7	-5
COc1ccc(C(=O)c2c(C)n(CCN3CCOCC3)c3cc(I)ccc23)cc1	-6	-11
Cc1ccc(CN2CCCC(C(=O)c3cccc(OC(C)C)c3)C2)o1 (stereo unspecified)	1	-1
CO[C@H]1CN[C@H]2Cc3c(oc4ccccc34)[C@@H]1C2	1	10
N#Cc1ccccc1CN1CCN(c2ccccc2O)CC1	-6	-5
c1cc(CN2CCSC3(CCCCC3)C2)no1	-4	-8
CC(Cc1cccs1)NCc1ccc(Cl)cc1 (stereo unspecified)	0	-3
C/C=C/c1cc(OC)c(OC)cc1OC	3	2
Cc1nccc2c1[nH]c1ccccc12	-5&2&0	-12&3&-26

The results go on:
SMILES	NPYLR7 agonist	NPYLR7 agonist max-min
COC(=O)c1ccc(NC(=O)c2cccn(Cc3cccc(C(F)(F)F)c3)c2=O)cc1	14	4
CCOC(=O)c1nn(CN2CC(C)OCC2C)c2ccc(Br)cc12 (stereo unspecified)	-2	-4
O=C(Cc1c(F)cccc1F)N1CCN(Cc2ccc(-c3noc(C4CCCC4)n3)cc2)CC1	28	17
Cc1cccc(C(=O)Nc2ccc3[nH]cc(CCN4CCOCC4)c3c2)c1	13	6
CN(C)CC(=O)N1C[C@@H]2C[C@H](C1)c1ccc(-c3ccc(OC(F)(F)F)cc3)c(=O)n1C2	-7	-16
COc1ccc(OC)c(CNC(=O)c2cn(CC3CCCO3)nn2)c1 (stereo unspecified)	1	-3
CC(=O)N1CN2CN(C(C)=O)CC([N+](=O)[O-])(C2)C1	-5	-10
O=C(O)CC[N+](=O)[O-]	5	-44
O=P(C=C(Cl)c1ccccc1)(C=C(Cl)c1ccccc1)Nc1cccnc1	1	0
Ic1cncc(OC[C@@H]2CCN2)c1	-19	-24
COc1ccc(C)c2sc(N3CCNCC3)nc12	-1	-2
CN(CC(N)=O)C1(c2ccccc2Cl)CCCCC1=O (stereo unspecified)	8	3
CCOc1ccc(-n2c(C(C)NC)nc3ccccc3c2=O)cc1 (stereo unspecified)	7	13
O=C(O)C(Cl)Cl	0&-12	-3&-17
CN1C(=O)C(=Cc2cn(-c3ccccc3)nc2-c2ccccc2)C(=O)N(C)C1=O	0	8
O=[N+]([O-])c1ccc(O[C@@H]2O[C@H](CO)[C@@H](O)[C@H](O)[C@H]2F)c([N+](=O)[O-])c1	0	-25
C=CCN1C(=O)C2(c3ccccc31)c1c(cc(C)n(CC)c1=O)OC(=N)C2C(=O)OC (stereo unspecified)	5	8
CONC(=O)c1nn(Cc2ccc(C(C)(C)C)cc2)c2ccccc12	21	21
COc1ccccc1Cn1c(N)c(C(N)=O)c2nc3ccccc3nc21	1	6
Fc1cccc(C2NCc3ccccc3-n3cccc32)c1 (stereo unspecified)	1	0
c1cc2c(c(-c3ccc4nc[nH]c4c3)c1)CCNC2	3	2
O=C(O)CNCP(=O)(O)O	-4	-9
CCN1C[C@]2(COC)CC[C@H](O)[C@]34C1[C@H](C[C@H]23)[C@@]1(O)C[C@H](OC)[C@H]2C[C@@H]4[C@@H]1[C@H]2OC(C)=O	15	2
NC(=O)c1n[nH]nc1N	-2	5
CS(=O)(=O)c1ccc(Cn2nc(C(=O)N3CCN(C(=O)C4CCCO4)CC3)c3ccccc32)cc1 (stereo unspecified)	13	17
COc1ccc(-n2nc(C(F)(F)F)cc2-c2ccc(Cl)cc2)cc1	5	-40
C[N+]1(C)C2CCC1CC(OC(=O)c1c[nH]c3ccccc13)C2 (stereo unspecified)	3	46
Cc1nc(N)sc1CCN	-12	-16
COP(=S)(OC)Oc1ccc(Sc2ccc(OP(=S)(OC)OC)cc2)cc1	-1	-7
CCCc1ccc(S(=O)(=O)N2CCN(CCOC(c3ccccc3)c3cccc(C(F)(F)F)c3)CC2)cc1 (stereo unspecified)	5	2
C#CCN(C)S(=O)(=O)c1ccc(Cn2nc(C(=O)NC(C)(C)C#C)c3ccccc32)cc1	20	21
C1CCC(N2CCN(C3CC4CCC3C4)CC2)C1 (stereo unspecified)	7	2
CCN(CC)c1onc(-c2ccccc2)c1CN(CCN(C)C)C(=O)Cc1ccccc1	-1	22
CN1CC[C@@]23CCCC[C@@H]2[C@@H]1Cc1ccc(O)cc13	-11	-18
CN(CCCC1CCCO1)C1CCNCC1 (stereo unspecified)	14	9
NC(CP(=O)(O)O)C(=O)O (stereo unspecified)	7	-10
COc1ccc(CNCCc2c(C)[nH]c3ccc(C)cc23)cc1OC	-3	3
CC(C)COP(C)(=S)/C(C#N)=C(\OC(=O)c1ccccc1)c1ccccc1 (stereo unspecified)	-3	23
COc1ncccc1CN1CCN2CCN(C)CC2C1 (stereo unspecified)	-4	-8
CN1CCCC1CCOC1c2ccccc2CCc2ccccc21 (stereo unspecified)	5	7
Cc1cc(C)cc(CC(C)NC(=O)NCCC(=O)N(C)C)c1 (stereo unspecified)	0	-1
Cc1cc(N2CCCC2c2cccnc2)nc(C)n1 (stereo unspecified)	-5	-8
CC1CCOC(CBr)(c2cc(OC(=O)N(C)C)cc(OC(=O)N(C)C)c2)O1 (stereo unspecified)	-1	-2
CCC1=NP(N2CCN(C)CC2)(N2CCN(C)CC2)=NC(N2CCN(C)CC2)=C1C	1	71
CN1Cc2c(ccc3c2OCO3)C2C(O)Cc3cc4c(cc3C21)OCO4 (stereo unspecified)	1	-5

One compound at a time (already shown). Screens in order: NPYLR7 agonist	NPYLR7 agonist max-min
Results for COc1ncccc1CN1CCN2CCN(C)CC2C1 (stereo unspecified) : -4	-8
Results for COc1ccc(CNCCc2c(C)[nH]c3ccc(C)cc23)cc1OC : -3	3

(continued)
SMILES	NPYLR7 agonist	NPYLR7 agonist max-min
CCOP(=S)(OCC)Oc1ccc2c(C)c(Cl)c(=O)oc2c1	-5	-8
CC(Cn1cncn1)NCc1n[nH]c2c1CCCCC2 (stereo unspecified)	-1	-2
CC(C)(C)C(=O)C(Oc1ccc(Cl)cc1)n1cncn1 (stereo unspecified)	-8	-11
CC(=O)OC(C)(C)C(=O)N1CCN(CCOC(c2ccccc2)c2ccc(N3CCOCC3)cc2)CC1 (stereo unspecified)	-1	10
Cc1cnn(CC(C)NC2CCOC2=O)c1 (stereo unspecified)	11	10
CCN(C)CCc1c[nH]c2ccc(NC(=O)c3cccc4c3-c3ccccc3C4=O)cc12	2	7
Cc1cc(=O)[nH]c(N2CCN(C)CC2)n1	-4	-4
CN1CCC(CN(C)C(=O)NCc2ccc(Cl)nc2)CC1	-2	-5
CC(=O)Nc1ccc(-c2ccc(=O)n3c2[C@@H]2C[C@@H](CN(C(=O)c4cnccn4)C2)C3)cc1	1	-1
OCCC1(NCCc2ccccc2)CCCCC1	0	-6

These rows are one share of the data; rates above refer to the full screens.
